Menin MLL FP FL: inhibitors of human menin-MLL interaction, wild-type MLL peptide | Fluorescence polarization, fluorescein-MLL peptide displacement from menin | FP activity change, % at 61.4 µM | 290,000 tested, under 10 active; inconclusive = falling polarisation curve, or a change in total fluorescence; inactive = total fluorescence flat and polarisation flat or rising; no compound was filed as active; the % refers to the polarisation; negative = inhibition;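 also: % of control where 0% means no effect; inhibitors lower the polarisation; unlabelled MLL peptide was the positive control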
gsp agonist: agonists of gsp mutant (McCune-Albright syndrome); gsp mutant cells, cAMP HTRF, 30 min; control for the full effect not named in the record; AID 624287; 0.13% of 340,000 active; Potency, µM (highest dose often 76.9 µM), inactives show at the top dose activation (cAMP increase), usual class: activators; active = well fitted activation curve with a large enough effect; inconclusive = small, poorly fitted or top-dose-only effect, or another doubt; inactive = no such curve, though single readings can be large or run the other way; cell line not stated here;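 also: phosphodiesterase inhibitor Ro 20-1724 added with compounds to block cAMP breakdown; potency is read from the fitted curve at half-maximal effect; nearly all actives have a fitted effect of over 60% in size; about a fifth of the inactives were tested at one dose only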
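Cells stably selected in G418 were plated at 2000/well, grown 16-24 hr, then given compounds in DMSO with the PDE inhibitor […] (300 uM solution added) for 30 min at 37C; cAMP was read by HTRF.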
ClpP mod: qHTS Assay for Activators of ClpP | ATP-dependent Clp protease proteolytic subunit (Bacillus subtilis (strain 168)), P80244 | purified B. subtilis ClpP, FRET peptide cleavage, 20 min | Potency, µM (doses to about 57.5 µM), inactives show top-dose activity change, negative = active | 1.9% of 340,000 active | AID 651965, 2013; active = well fitted falling curve with a large enough effect; inconclusive = small, poorly fitted or top-dose-only effect; inactive = no such curve, though single readings can be large or run the other way; also: potency is read from the fitted curve at half-maximal effect; the source files actives as falling curves though it sought activators and does not explain the sign; nearly all actives have a fitted effect of over 65% in size; many hits overshoot -100%
Target sequence (P80244 whole entry, looked up): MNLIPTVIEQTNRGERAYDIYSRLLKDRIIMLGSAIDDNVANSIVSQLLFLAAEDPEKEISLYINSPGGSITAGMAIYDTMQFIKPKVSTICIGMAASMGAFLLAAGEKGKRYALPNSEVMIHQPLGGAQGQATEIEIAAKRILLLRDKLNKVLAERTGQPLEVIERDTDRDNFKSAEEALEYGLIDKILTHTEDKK
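Buffer: 100 mM Tris/HCl pH8, 100 mM KCl, 0.05% low protease BSA, 2.5% glycerol, 0.01% Tween-20. ClpP 10 microg/mL final; 20 min RT; delta FRET normalized to ADEP and DMSO controls.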
gsp antag: antagonists of gsp mutant (McCune-Albright syndrome). gsp-mutant cells, cAMP HTRF, 30 min; control for the full effect not named in the record. Potency, µM (highest dose often 76.9 µM), without a hit: at the top dose activity change, negative = inhibition, actives largely listed as inhibitors. 0.4% of 340,000 active; active = falling curve of any shape with a large fitted effect; inconclusive = falling curve, mostly with a smaller effect; inactive = flat or rising curve; cell line not stated here;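 also: intracellular cAMP measured with PDE inhibitor Ro 20-1724 present during compound exposure; potency is read from the fitted curve at half-maximal effect; % is scaled to controls: 0 for no effect and ±100 for the full control effect; nearly all actives have a fitted effect of over 65% in size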
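Measurement of cellular cAMP by homogeneous time-resolved fluorescence following a 30 min compound exposure at 37C. The PDE inhibitor […] was present throughout; the assay buffer was DPBS with 0.05% BSA and 0.005% Tween 20.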
TRPV1 potentiator: enhances activation of the human vanilloid receptor TRPV1; TRPV1-expressing cells, Fluo-8 calcium influx, capsaicin EC20 potentiation; host cell line not named in the record; control for the full effect not named in the record; potentiation, % at 8.33 µM; 0.02% of 320,000 active; AID 540277; active means potentiation above 80%; inconclusive means 30% to 80%; inactive means below 30%; also: 0% is about no effect
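Fluo-8 calcium influx in TRPV1-expressing cells, kinetic read (ex 480/em 520 nm). Compound added and read 3 min for agonist activity, followed by capsaicin at EC20 final and 2 min further read for enhancement.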
TRPML1 blocker: blocks the human TRPML1 channel | 0.02% of 390,000 active | Q9GZU1 | activity change, negative = inhibition, % (no concentration beside the values) | TRPML1-inducible cells, Ca2+ dye fluorescence, FDSS; active compounds read low; inhibition of EC80 agonist-evoked calcium signal; in the data active means activity change below about -50%; inconclusive means about -30% to -50%; inactive means above about -30%;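 also: stimulus is agonist 54-4 at its EC80 concentration; % is scaled to controls: 0 for no effect and ±100 for the full control effect; compound concentration not given in the record; the text of the record puts the active cut at -80%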
Target sequence (Q9GZU1 whole entry, looked up): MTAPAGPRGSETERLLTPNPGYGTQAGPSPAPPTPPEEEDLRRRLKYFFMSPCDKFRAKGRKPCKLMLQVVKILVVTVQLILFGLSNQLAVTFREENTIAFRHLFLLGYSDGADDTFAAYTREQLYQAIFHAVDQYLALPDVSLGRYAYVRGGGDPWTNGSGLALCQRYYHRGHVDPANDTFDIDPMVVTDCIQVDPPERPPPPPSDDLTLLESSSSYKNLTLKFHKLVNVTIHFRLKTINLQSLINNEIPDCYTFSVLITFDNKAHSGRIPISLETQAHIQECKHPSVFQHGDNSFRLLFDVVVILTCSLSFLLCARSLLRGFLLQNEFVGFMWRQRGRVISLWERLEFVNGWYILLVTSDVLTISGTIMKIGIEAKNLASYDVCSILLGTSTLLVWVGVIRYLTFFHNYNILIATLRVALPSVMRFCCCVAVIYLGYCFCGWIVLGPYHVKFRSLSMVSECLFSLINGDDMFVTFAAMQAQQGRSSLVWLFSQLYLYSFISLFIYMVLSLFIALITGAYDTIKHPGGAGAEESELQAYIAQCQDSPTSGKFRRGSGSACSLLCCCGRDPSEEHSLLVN
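TRPML1-DL cells, Tet-induced overnight (~16 h, 37 °C) at 1,500 cells/well, were loaded with Ca8 no-wash dye plus quencher for 45-90 min at room temperature. Compounds were pinned during FDSS kinetic reading; agonist 54-4 at EC80 (4 uM final) then added.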
Sfp inh: Sfp phosphopantetheinyl transferase inhibition. Biochemical Sfp PPTase activity, qHTS. Potency, µM, without a hit: max response, negative = inhibition, actives largely listed as inhibitors. 3.5% of 310,000 active. AID 1490; active = well fitted inhibition curve with a large enough effect; inconclusive = small, poorly fitted or top-dose-only effect, or another doubt; inactive = no such curve, though single readings can be large or run the other way;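 also: the enzyme is Sfp with the accession as filed and its product quenches rhodamine fluorescence; potency is read from the fitted curve at half-maximal effect; 0% = enzyme reaction without inhibitor and -100% = no enzyme wells; top concentration of the series not given in the record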
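Fluorescence-quenching assay with 15 nM Sfp, 5 uM rhodamine-CoA and 12.5 uM BHQ-2-labelled ybbR peptide in pH 7.6 Hepes/MgCl2 buffer. Enzyme was pre-incubated with compound for 15 min at room temperature. Rate was taken from the 30-min fluorescence change (525/598 nm).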
Active calls of the source: *; ? = inconclusive; . = no result given; & = joins results of further samples; [ ] = another dose, or the depositor's remark.

SMILES,gsp antag,Sfp inh,gsp agonist,ClpP mod,Menin MLL FP FL,TRPML1 blocker,TRPV1 potentiator
COC(=O)c1cc(NC2c3ccccc3C(=O)N2c2cccnc2)cc(C(=O)OC)c1 (configuration not stated),-18%,12%,-6%,-13%,1.6,20,10
O=C(O)c1ccc2c3c(ncnc13)-c1ccccc1C2=O,?,-11%,24%,1.0%,?,10,19
O=c1oc2c(CN3CCOCC3)c(O)c(Cl)cc2c2c1CCC2,.,2%,.,.,-2.4,.,2
Brc1cccc(CNCC2CCCO2)c1 (configuration not stated),0%,-5%,2%[15.4 µM],1.2%,-2.5,9,-3
Cc1nc(-c2ccccn2)nc(N(C)c2ccccc2)c1Cl,0%,13%,-1%,-1.6%,-1.0,-13,-19
CCOC(=O)C1(Cc2cccc(OC)c2)CCN(Cc2csc(C(C)=O)c2)CC1,-8%,6%,-28%,-0.3%,-1.9,-2,-20
Cc1ccc(O)c(-c2[nH]ncc2C(=O)c2ccc(Cl)cc2)c1,-4%,20%,34%,.,7.0,8,1
CC1=CC(c2ccc(Cl)cc2)n2nc(NC(=O)CCC(=O)O)nc2N1 (configuration not stated),-1%,-22%,18%[15.4 µM],.,1.2,2,-7
S=C(Nc1ccccc1)N1N=C(c2cccs2)CC1c1cccs1 (configuration not stated),3%,-7%,-1%[15.4 µM],.,19,23,13
CCOC(=O)C1CCN(C(=O)c2cccnc2)CC1,21%,13%,-4%,0.4%,1.9,-9,-5
C[C@@H]1CN([C@@H](C)CO)C(=O)c2cc(Br)cnc2O[C@H]1CN(C)C(=O)C1CC1,.,.,1%,0.1%,.,-2,.
COc1ccc(NC(=O)Cc2c(C(=O)O)n(C)c3ccccc23)cc1OC,5%,20%,-3%[15.4 µM],.,-1.8,1,8
CNCc1ccccc1Sc1ccc(OC)c(OC)c1,-22%,4%,-1%,-2.8%,-0.3,17,5
Cc1cc(=O)oc(C)c1C(=O)N[C@@H]1CCCCNC1=O,14%,11%,13%,-2.0%,-1.1,0,-4
COc1ccc(CN(C(=O)CSc2nnc(-c3ccccc3C)o2)c2ccc(F)cc2)cc1,-3%,-2%,-5%,-3.9%,1.8,-6,5
Cc1ccc(CNCC(O)(c2ccccc2)c2ccccc2)cc1,-8%,1%,?,-1.7%,1.3,9,10
COc1ccccc1N1CCN(C(=O)CCSCc2ccccc2F)CC1,9%,1%,-4%[15.4 µM],-1.6%&0.9%,3.0,-9&-16,0
O=C(Nc1ccc(N2CCOCC2)cc1)c1cccc(S(=O)(=O)N2CCOCC2)c1,-2%,.,1%,-0.5%,.,11,.
CN(C)C(=O)c1cn(-c2ccc(Cl)cc2)c(=O)c2ccccc12,-9%,22%,4%[15.4 µM],.,-4.3,15,-4
Clc1ccccc1C1Nc2cccc3cccc(c23)N1,-11%,-29%,?,-0.9%,-1.0,-6,?
CN1CCN(C(=O)c2cc3ccccc3oc2=O)CC1,18%,12%,-54%[inhibitor],-13%,-0.9,-5,18
CCOC(=O)C(=CNc1ccc(C)cc1C)C(=O)OCC,?,-12%,14%,2.1%,-1.5,0,-11
CN(C(=O)COc1ccccc1)c1nnc(-c2ccncc2)s1,-8%,8%,-4%,298%,-0.2,41,-5
CC(=O)c1cccc(NC(=O)CCCNC(=O)c2ccc(Cl)cc2)c1,-2%,-3%,-7%[15.4 µM],.,-9.7,3,14
O=C(COC(=O)COc1ccc(Cl)cc1)NC1CC1,6%,.,1%,2.0%,.,13,-4
O=C(CC1SC(N2CCCC2)=NC1=O)Nc1ccc(C(=O)N2CCN(c3cccc(Cl)c3)CC2)cc1 (configuration not stated),4%,.,-4%[15.4 µM],32µM*,.,-3,1
Cc1ccc(-n2ncc3c(=O)[nH]c(SCC(=O)N4CCN(c5ccccc5)CC4)nc32)cc1,-12%,15%,-12%,-2.3%,-0.5,0,7
COc1ccc(OC)c(NC(=O)CSc2nc(=O)n(Cc3ccccn3)c3c2CCC3)c1,-33%,.,0%,-1.8%,.,3,5
COc1cc(OC)c(OC)cc1CN1CCCC(C(=O)c2ccc3c(c2)OCO3)C1 (configuration not stated),4%,11%,?,-13%,1.8,-5,10
Cc1ccc(C)c(NC(=O)C(OC(=O)c2cc[n+]([O-])cc2)c2ccccc2)c1 (configuration not stated),2%,.,2%,2.0%,.,-4,3
COc1cccc(C(CC(=O)Nc2cccc3ccccc23)NC(=O)c2ccccc2)c1 (configuration not stated),4%,-11%,14%,-0.3%,8.2,-15,11
Fc1cccc(CCN2CCN=C2Nc2ccccc2)c1,11%,.,.,-1.5%,.,-3,?
NC(=O)c1ccsc1N,.,20µM*,.,.,?,.,-6
Cc1ccc(NC(=O)Nc2ccc3c(c2)N(C)C(=O)CS3)nc1,-11%,3%,5%,-0.3%,3.4,5,1
CC1(C)Cc2c(c(-c3ccccc3)nc(N3CCCC3)c2C(N)=O)CO1,1%,11%,13%,-6.7%,6.1,-14,-22
C=CCn1c(CSc2nc3ccccc3s2)nnc1SCC(=O)NCc1ccco1,-27%,16µM*,6%,-0.7%,5.6,0,-5
COc1cccc(C(C#N)NCCCNC(C#N)c2cccc(OC)c2OC)c1OC (configuration not stated),13%,.,7%,1.6%,.,-1,.
O=C1CSC(c2ccccn2)N1c1ccc(Br)cc1 (configuration not stated),-6%,24%,-9%[15.4 µM],-3.3%,-4.2,16,7
CCNC(=S)N/N=C(\C)c1ccc(Cl)s1,10%,11%,2%,-12%,.,-2,-16
Cc1ccc(OCC(=O)Nc2ccc3c(c2)OCO3)c([N+](=O)[O-])n1,-8%,12%,6%[15.4 µM],0.0%,5.7,-6,3
CN(C(=O)CC1C(=O)NCCN1Cc1ccccc1C(F)(F)F)C1CCOCC1 (configuration not stated),10%,12%,5%,-21%,.,-5,0
COc1ccc(-c2cc(C(=O)NN)n(-c3ccccc3)n2)cc1,1%,-10%,-37%,-5.1%,1.5,-3,16
O=C(Nc1ccc(S(=O)(=O)NCc2ccco2)cc1)c1cccc(F)c1,-13%,20%,2%[15.4 µM],.,0.1,-6,-4
Cc1nc(C(=O)O)sc1C1(C)CC(c2cccc([N+](=O)[O-])c2)=NO1 (configuration not stated),-5%,.,2%,1.3%,.,6,.
O=C1C(=O)N(CCCc2ccccc2)c2ccccc21,14%,8%,-5%,0.5%,0.9,.,7
C/C(=N\Nc1ccccc1C(=O)O)c1ccncc1,?,2%,17%[15.4 µM],.,0.3,-5,26
C/C=C/c1ccc(OCCN2CCc3ccccc3C2)c(OC)c1,-2%,-7%,0%[15.4 µM],.,1.7,5,7
N#CCC(=O)N1CCCCCC1,21%,15%,3%[15.4 µM],84%,-3.0,4,-3
CCn1c(Cn2nnc(-c3ccccc3)n2)nnc1SCC(=O)N1CCOCC1,3%,3%,-66%[inhibitor],-4.4%,1.5,-12,-2
CCN(CC)S(=O)(=O)c1ccc2c(c1)N(CC(=O)N1CCCC1)C(=O)CO2,10%,11%,20%[15.4 µM],.,1.4,-4,-11
CC(=O)Nc1cccc2c1C(=O)N(c1cccc(OC(C)=O)c1)C2=O,-11%,7%,11%,0.3%,-0.4,1,-2
CCOC(=O)c1c(NC(=O)CC)sc(C(=O)N2CCCCC2)c1C,-9%,10%,9%,-7.9%,5.0,0,28
CCOc1ccc(NC(=O)CNS(=O)(=O)c2c(C)cc(C)cc2C)cc1,-6%,9%,32%,-2.4%,-2.8,-10,11
COc1ccc(CCC(=O)Nc2ccc3c(c2)OCCO3)cc1,-17%,0%,-32%[inhibitor],-1.8%,4.3,6,-6
CCN(CC(=O)Nc1cc(Cl)ccc1C)C(=O)CSCc1c(C)noc1C,-10%,.,-7%[15.4 µM],.,.,-15,-7
Cc1cc(C)c(C)c(S(=O)(=O)N2CCCCC2C(=O)O)c1C (configuration not stated),-7%,9%,?,.,-0.2,4,-4

Remaining list, next part
SMILES,gsp antag,Sfp inh,gsp agonist,ClpP mod,Menin MLL FP FL,TRPML1 blocker,TRPV1 potentiator
COc1ccc(S(=O)(=O)N/N=C\c2ccc3c(c2)OCO3)c(OC)c1,-19%,5%,?,-3.6%,0.0,-5,9
COc1ccc2c(c1)c(=O)oc1c(C)c(OCc3cc(C(=O)O)oc3C)ccc12,-4%,-5%,?,.,0.8,-9,?
O=C(CCCNC(=O)c1ccc(Cl)cc1)Nc1ccc(F)c(S(=O)(=O)N2CCOCC2)c1,-7%,.,-11%,-0.6%,.,-4,1
O=C(Nc1ccccc1)c1cnc2ccccc2n1,-1%,14%,-22%,2.1%,-0.6,-13,-23
COc1ccc(C(=O)Nc2ccc3nc(N4CCOCC4)sc3c2)cc1OC,-7%,.,?,-1.6%,.,-2,4
CCc1cc(-c2ccc3c(c2)COc2c4ccccc4nn2-3)on1,-22%,.,.,-2.1%,.,1,.
Cc1cc(C)c[n+](CC(=O)c2ccc(NC(=O)c3ccccc3)cc2)c1,.,2%,1%[15.4 µM],.,0.5,-4,-3
COc1ccccc1N1CCN(C2CCCN(S(=O)(=O)c3ccc(C)cc3)C2)CC1 (configuration not stated),-6%,3%,6%,0.8%,.,23,-9
CSc1ccc(C(=O)/C=C/c2ccc(N)cc2)cc1,-14%,-25%,-10%,-0.9%,4.9,-8,-8
